Mtb bLac sens: beta-lactam sensitization of Mtb H37Rv, H37Rv | M. tuberculosis H37Rv growth with meropenem, percent inhibition; hits of this screen are not shown here | AID 434955, 2010 | hit rate 0.27% among 330,000 | inhibition, % at 25 µM;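 active = about 74% or more and at least 40 points above the plate without the antibiotic, then above 30% in a dose series; inconclusive = first-round hits that could not be retested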;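 also: growth measured after seven days incubation then overnight dye step; 0% = bacteria only wells and 100% = bacteria with antibiotic; twin plates without the antibiotic show which effects depend on it; some results filed as inactive read as strong as hits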
Starred values were filed as active, the others as inactive; u = inconclusive. Not all compounds are listed, so the mix of outcomes need not match the whole.

SMILES | Mtb bLac sens
CCN(C(=O)CN1C(=O)NC2(CCCc3ccccc32)C1=O)c1ccc(F)cc1 (stereo not given) | 1
Cc1cc(C(=O)CN2C(=O)NC(CC(C)C)C2=O)c(C)n1C1CC1 (stereo not given) | -7
O=C(NC1=NCCS1)c1cccc(S(=O)(=O)N2CCOCC2)c1 | 0
CCCCC(CC)COP(=O)(OCC(CC)CCCC)OCC(CC)CCCC (stereo not given) | 1
O=C(NCCN1C(=O)S/C(=C/c2cccnc2)C1=O)C1=NN(c2ccccc2)C(=O)CC1 | -8
CCC1CCCCN1C(=O)c1cc2c(=O)n3cccc(C)c3nc2s1 (stereo not given) | 3
O=C(C[C@@H]1C/C=C/CCCC(=O)O[C@H](c2ccccc2)CNC1=O)N[C@H](CO)Cc1ccccc1 | -1
Nc1ccn(CC(=O)NCc2ccccn2)c(=O)n1 | -5
COc1ccc(CCN(C)S(=O)(=O)c2cn(C)c(=O)n(C)c2=O)cc1OC | 7
CCOc1ccc(N(C(=O)c2snc(C(N)=O)c2N)C(C(=O)NCC2CCCO2)c2ccco2)cc1 (stereo not given) | -27
CN(C(=O)CSc1ncnc2sc3c(c12)CCCC3)C1CCS(=O)(=O)C1 (stereo not given) | 0
CSc1ncccc1C(=O)OCCCC(=O)c1ccc(F)cc1 | 9
CC(Oc1ccc(Cl)cc1)C(=O)N1CCN(C(=O)c2ccco2)CC1 (stereo not given) | 2
CC(C(=O)NCC(=O)Nc1ccc(F)c(F)c1F)N1CCN(Cc2ccc(C#N)cc2)CC1 (stereo not given) | 0
CCc1noc(C)c1C(=O)N1CCN(S(=O)(=O)c2c(C)cc(C)cc2C)CC1 | -5

(list continues)
SMILES | Mtb bLac sens
COC(=O)C1=C(C)N(Cc2ccccc2)C(=NCc2ccccc2)N[C@H]1c1ccccc1 | 29
CN(CC(=O)Nc1ccc(Cl)c(C(F)(F)F)c1)C(=O)CCC(=O)c1ccccc1 | -8
CCCn1c(SCC(=O)c2cc(C)n(C3CC3)c2C)n[nH]c1=O | 2
CN(C)S(=O)(=O)c1ccc(C(=O)Nc2ccccc2C(=O)NCCCN2CCOCC2)cc1 | 9
O=C(Nc1ccccc1N1CCOCC1)c1ccncc1 | 3
CS(=O)(=O)c1ccc(C(=O)Nc2cc(-c3ccccc3)nn2-c2ccccc2)cc1 | -2
CCC(Oc1ccccc1F)C(=O)NCCCn1ccnc1 (stereo not given) | -25
NC(=O)C1Cc2ccccc2CN1C(=O)c1nn(Cc2ccccc2)c(=O)c2ccccc12 (stereo not given) | 9
Cc1ccc(C)c(CNc2ccc(S(=O)(=O)N3CCCCC3)cc2)c1 | -9
C[C@H]1CN([C@@H](C)CO)C(=O)c2cccc(NS(=O)(=O)c3cn(C)cn3)c2O[C@H]1CN(C)S(C)(=O)=O | -8
CCOC(=O)N1CCN(c2ccncc2S(=O)(=O)N2CCCCC2)CC1 | u
Cc1ccc([C@H]2C(C(=O)O)=CC[C@@H](c3ccc(Cl)c(Cl)c3)N2S(=O)(=O)c2ccc(C)cc2)cc1 | 6
C/C(=N\Nc1nccnc1Cl)c1ccc(O)c(C)c1 | 0
Cc1cccc(CCN2C(Nc3ccccc3)=NC[C@@H]2CC(C)C)c1 | -2
COc1cccc([C@@H]2CC=C(C(=O)O)CN2S(=O)(=O)c2ccc(C)cc2)c1 | -1

(cont.)
SMILES | Mtb bLac sens
Cc1nn(CC(=O)Nc2ccc3c(c2)CCC3)c(C)c1[N+](=O)[O-] | 0
C/C(=N\NC(=O)c1cccc(S(=O)(=O)N2CCOCC2)c1)c1ccc(C)cc1 | 0
COC(=O)[C@]1(C)CCC[C@@]2(C)C3CC[C@@]4(C)C[C@]3(CCC21)CC(=O)N4C (stereo not given in full) | -2
O=C(COC(=O)c1c(F)cccc1F)NCc1cccs1 | -13
Cc1noc(C)c1S(=O)(=O)Nc1ccc2c(c1)C(=O)N([C@H](C)CO)C[C@H](C)[C@@H](CN(C)C(=O)NC(C)C)O2 | -2
C#CCOCCOCCOCCNc1nc(N2CCN(C(=O)Cn3cc(CCCCN)nn3)CC2)nc(N2CCN(C(=O)[C@H](CCCCN)n3cc(CCCC)nn3)CC2)n1 | -9
CN1CCN(S(=O)(=O)c2ccc(C(F)(F)F)cc2)C(c2ccccc2)C1 (stereo not given) | 5
Cc1ccc(C(=O)OC(C)C(=O)NC2CCCCC2C)s1 (stereo not given) | -7
Cc1ccsc1C(=O)OCC(=O)c1cc(C)n(C)c1C | -1
CCc1ccc(NC(=O)[C@H](Cc2c[nH]c3ccccc23)NC(=O)[C@@H]2Cc3ccccc3CN2)cc1 | 0
CC(C)c1cccc(C2=CC(=O)C[C@H](c3ccc(F)cc3)C2)c1 | 17
CC(=O)Nc1oc(-c2cccc3ccccc23)nc1C#N | -3
CCN(C(=O)CSc1nc2ccc(C)cc2[nH]1)C1CCS(=O)(=O)C1 (stereo not given) | 0
CCOc1ccc(C(=O)N2CCN(c3ncccn3)CC2)cc1 | 3
COc1ccc([C@H]2CC(=O)C=C(/C=C/c3ccc(Cl)cc3)C2)cc1 | 2

Next part
SMILES | Mtb bLac sens
C[C@@H]1COC(=O)[C@H](CC(=O)OC(C)(C)C)C/C=C\C[C@@H](CC(=O)N[C@H](CO)Cc2ccccc2)C(=O)N1 | 1
COC(=O)C1=C(C)N(Cc2ccccc2)C(=NCC(C)C)N[C@H]1c1cccc(F)c1 | 25
O=C(COC(=O)COc1ccc2c(c1)CCC2)Nc1ccccc1C(F)(F)F | -4
CC(=O)c1cccc(NC(=O)c2cc(=O)[nH]c3ccc(S(=O)(=O)N4CCOCC4)cc23)c1 | 4
COc1ccc(S(=O)(=O)N(C)C[C@H]2Oc3ccc(NC(=O)Nc4ccccc4)cc3C(=O)N([C@H](C)CO)C[C@@H]2C)cc1 | 17
O=C(CCC1CCCCC1)NC1CCCCC1 | -10
CCOc1ccccc1/C=C/C(=O)N1CCN(C(=O)c2ccco2)CC1 | -5
O=S(=O)(c1cccc2cnccc12)N1CCNCC1 | 3
O=C(/C=C/c1ccccc1)NNC(=O)c1ccco1 | 3
O=C(COc1ccc(-n2cnnn2)cc1)Nc1ccc(F)cc1 | 0
COc1cc(OC)c(C2=NOC(C(=O)NCc3cccnc3)C2)cc1Cl (stereo not given) | -1
CCN(CC)C(=O)N1CCN(c2c([N+](=O)[O-])c(=O)oc3ccccc23)CC1 | -6
Cc1ccc(S(=O)(=O)NCC(=O)OCC(=O)Nc2cccc(S(=O)(=O)N3CCOCC3)c2)cc1 | -11
CCc1cccc2c(C(=O)CN3C(=O)NC4(CCCCC4)C3=O)c[nH]c12 | 4
COc1ccc(N2CCN(C(=O)CN3c4cccc5cccc(c45)S3(=O)=O)CC2)cc1 | -3

(further entries)
SMILES | Mtb bLac sens
O=C(Nc1cc(S(=O)(=O)N2CCOCC2)ccc1N1CCCCC1)c1ccccc1Br | 2
CCN(CC)c1ccc(S(=O)(=O)N2CCOCC2)cc1NC(=O)CSc1nncn1C | -6
Cc1ccc(C2=CC(=O)CC(C)(C)C2)cc1 | 12
Cc1nnc(SCC(=O)NC2CCCC2)n1-c1ccccc1 | -5
COc1ccc(C)cc1NC(=O)COC(=O)c1ccc2c(c1)OCO2 | 1
COc1ccc(C(=O)OCC(=O)N2C(C)CCCC2C)cc1S(=O)(=O)N1CCOCC1 (stereo not given) | -2
CN(C)C(CNC(=O)c1cc2ccccc2o1)c1ccco1 (stereo not given) | -7
N#Cc1ccc(OCC(=O)NCC2COc3ccccc3O2)cc1 (stereo not given) | -4
O=C(CN(Cc1ccco1)C(=O)c1ccc([N+](=O)[O-])cc1)Nc1ccccc1C(F)(F)F | -7
CCC(C)(C)C1CCC2(CC1)NC(=O)N(CC(=O)NCCc1ccc(OC)c(OC)c1)C2=O (stereo not given) | 6
O=C(C[C@@H]1C/C=C\CCC(=O)OC[C@H](Cc2ccccc2)NC1=O)N[C@@H](CO)Cc1ccccc1 | -4
Clc1cccc(-c2ccc3ncnc(NCc4cccnc4)c3c2)c1 | 10
CN(CC(=O)NCC(=O)Nc1ccc(F)c(F)c1F)C1CCS(=O)(=O)C1 (stereo not given) | 3
CC1CCCN(C(=O)COC(=O)c2cc(Br)ccc2O)C1 (stereo not given) | 84
O=C(COC(=O)/C=C/c1ccc([N+](=O)[O-])cc1)NCc1ccco1 | -6

Next section
SMILES | Mtb bLac sens
C[C@H](CO)N1C[C@H](C)[C@@H](CN(C)S(=O)(=O)c2ccccc2)Oc2c(NC(=O)Nc3ccc4c(c3)OCO4)cccc2C1=O | -4
COc1ccccc1OCCNC(=O)c1cc(C2CC2)nc2c1cnn2C(C)C | -6
COc1ccc(OC)c(NC(=O)COC(=O)CCCN=C2NS(=O)(=O)c3ccccc32)c1 | -8
Cc1ccc(NC(=O)CSCC(=O)NC2(C)CCS(=O)(=O)C2)cc1 (stereo not given) | -6
COc1ccc(C(=O)Nc2ccc(Nc3ccccc3)cc2)cc1OC | -5
COc1ccccc1CNC(=O)C(CCSC)NC(=O)c1cccc(S(=O)(=O)N2CCOCC2)c1 (stereo not given) | -1
COc1ccc(S(=O)(=O)Nc2ccc(-n3cnnn3)cc2)cc1[N+](=O)[O-] | 0
O=C(CSCc1ccc(F)cc1)Nc1ccc(N2CCOCC2)cc1N1CCOCC1 | 11
NS(=O)(=O)c1cccc(NC(=O)CSc2n[nH]c(-c3cccs3)n2)c1 | -2
Cc1cc(NC(=O)CN(C)CC(=O)Nc2ccc(Cl)cc2)no1 | -2
N#Cc1ccc(C(=O)Nc2cc(S(=O)(=O)N3CCOCC3)ccc2N2CCCC2)cc1 | -6
COc1ccc(NS(=O)(=O)c2ccc(C(=O)N3CCC(C)CC3)cc2)cc1 | -6
CC1(C)O[C@@H]2C[C@H]3[C@@H]4CCC5=CC(=O)CC[C@]5(C)[C@@]4(F)[C@@H](O)C[C@]3(C)[C@]2(C(=O)CCl)O1 | -6
Cn1nc(C(=O)NNC(=O)c2cccc(Cl)c2)c2ccccc2c1=O | -2
CCn1nc(C(=O)NNC(=O)C2CSC3(C)CCC(=O)N23)c2ccccc2c1=O (stereo not given) | -2

Another view of 4 compounds above.
canonical_smiles: C[C@H](CO)N1C[C@H](C)[C@@H](CN(C)S(=O)(=O)c2ccccc2)Oc2c(NC(=O)Nc3ccc4c(c3)OCO4)cccc2C1=O
  Mtb bLac sens: -4

canonical_smiles: COc1ccccc1OCCNC(=O)c1cc(C2CC2)nc2c1cnn2C(C)C
  Mtb bLac sens: -6

canonical_smiles: COc1ccc(OC)c(NC(=O)COC(=O)CCCN=C2NS(=O)(=O)c3ccccc32)c1
  Mtb bLac sens: -8

canonical_smiles: Cc1ccc(NC(=O)CSCC(=O)NC2(C)CCS(=O)(=O)C2)cc1 (stereo not given)
  Mtb bLac sens: -6

4 entries from above, sorted by number of heavy atoms, ascending:
SMILES | Mtb bLac sens
Cc1ccc(C2=CC(=O)CC(C)(C)C2)cc1 | 12
Cc1ccsc1C(=O)OCC(=O)c1cc(C)n(C)c1C | -1
CCN(C(=O)CSc1nc2ccc(C)cc2[nH]1)C1CCS(=O)(=O)C1 (stereo not given) | 0
COc1ccccc1OCCNC(=O)c1cc(C2CC2)nc2c1cnn2C(C)C | -6

New compounds follow
SMILES | Mtb bLac sens
CCCCn1c(N)c(N(CC(C)C)C(=O)c2ccc(-c3ccc(Cl)cc3)o2)c(=O)[nH]c1=O | -2
COc1ccc([N+](=O)[O-])cc1NS(=O)(=O)c1cccc(C(=O)NCCCN2CCCC2=O)c1 | -1
CC(OC(=O)c1cn(C)c2ccccc12)C(=O)N1CCCC1 (stereo not given) | -8
CC(OC(=O)[C@@H](NC(=O)c1ccco1)C(C)C)C(=O)Nc1ncc(Cl)cc1Cl (stereo not given in full) | -3
CCC1(c2ccc(F)cc2)NC(=O)N(CC(=O)NC2CCCC(C)C2C)C1=O (stereo not given) | -1
N#Cc1ccc(OC(=O)C2CCN(C3=NS(=O)(=O)c4ccccc43)CC2)cc1 | -8
COc1ccc(-c2nn(-c3ccccc3)cc2C(=O)N2CCN(C(=O)c3ccco3)CC2)cc1 | 0
C[C@H](CO)N1C[C@H](C)[C@H](CN(C)Cc2ccccc2)Oc2ccc(NC(=O)Nc3ccc(F)cc3)cc2C1=O | 8
COc1cccc(CNC(=O)Cn2nc([N+](=O)[O-])c(Br)c2C)c1 | -4
O=C(Nc1ccccc1)c1nc[nH]c1C(=O)NCc1ccccc1 | 1
COc1cc(S(=O)(=O)Nc2ccc3nc(C)sc3c2)ccc1NC(C)=O | -4
COc1ccc(C(=O)OCC(=O)NC(=O)NC2CCCC2)cc1OC | 4
COc1ccc(C2=NN(c3nc(-c4ccc(CNC(C)=O)cc4)cs3)C(c3ccco3)C2)cc1 (stereo not given) | 61
COc1ccc(OCC(=O)NNC(=O)C2CCC2)cc1 | -4
O=C(NNC(=O)c1cc(F)c(F)cc1Cl)c1ccc(NS(=O)(=O)c2cccs2)cc1 | 3

Further structures.
SMILES | Mtb bLac sens
Cc1ccc(NC(=O)COC(=O)C2CC3CCCC(C2)C3=O)c([N+](=O)[O-])c1 (stereo not given) | -3
CC1(C2CC2)NC(=O)N(CC(=O)N2CCN(S(=O)(=O)c3ccc(F)c(F)c3)CC2)C1=O (stereo not given) | 2
CCOc1cc(N2CCOCC2)c(OCC)cc1NC(=O)C1=COCCO1 | 2
COc1ccc([C@H]2CC(=O)C=C(c3ccc4c5c(cccc35)CC4)C2)cc1 | 91
O=S(=O)(c1ccc2c(c1)OCCO2)N1CCN(S(=O)(=O)c2ccco2)CC1 | -1
CN(C)C(CNC(=O)c1ccc(OCc2cn3ccccc3n2)cc1)c1ccco1 (stereo not given) | -5
Cc1ccc(S(=O)(=O)N2[C@@H](c3ccccc3F)C(C(=O)O)=CC[C@H]2c2cccc(C)c2)cc1 | -3
O=C(c1ccccc1F)N1CCN(C(=O)C2CC2)CC1 | u
O=C(COC(=O)c1ccc(F)cc1Cl)Nc1cccc(S(=O)(=O)N2CCOCC2)c1 | 1
Cc1cccc(C(=O)NCC(=O)N2CCN(S(=O)(=O)c3ccc4c(c3)OCCO4)CC2)c1 | 0

Compound activity (PubChem BioAssay)
